Mtb hypoxia inh = reduces hypoxia-regulated biosensor signal in M. tuberculosis; hit rate 0.1% among 300,000; M. tuberculosis hypoxia-regulated fluorescent reporter, fluorescence; fluorescence inhibition, % (test concentration not listed);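 active = 35 to 45% if threefold the growth effect, above 45% if 1.5-fold the growth effect; inactive = the rest, general growth blockers included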;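 note: wells of about 50 µL received 100 nL stock; 0% = vehicle wells and 100% = reference inhibitor wells; whole bacteria with a GFP reporter of the hypoxia response; strong numbers were not always called active; many hits fall short of the cut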
RN4220 kill = S. aureus RN4220 growth inhibition; inhibition, % (no concentration beside the values); hit rate 0.33% among 330,000; AID 1259311; OD600, 16 h;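 active = z-score of -3 or lower and OD600 up to 0.18 on both plates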;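 note: plate controls were untreated cells for no effect and reference antibiotic for full effect; stock transfer was 100 nL into about 80 µL; one replicate is shown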
Bead autofluor = compound fluorescence in toxin protease inhibitor counterscreen | compound autofluorescence counterscreen, microsphere flow cytometry; stronger effect = higher value | fluorescence intensity (concentration not given with the values) | AID 624483 | hit rate 3.1% among 360,000;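 active = at least 3 SD above the mean of all compounds, about 16000 in these data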;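 note: 100 nL of 1 mM stock went into each well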
PrP 5UTR inh = inhibition of PrP 5' UTR reporter expression; cell-based PrP 5' UTR mRNA reporter, plate reader; inhibition, % (test concentration not listed); hit rate 0.35% among 340,000;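 active = every replicate at 50% or more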;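 note: 0 = median of the neutral control wells; tested in H4 reporter cells; numbers are from one replicate; inactives centre near -14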
BJeLR lethal = BJeLR cell viability loss | hit rate 0.17% among 300,000 | inhibition, % (concentration not given with the values) | BJeLR (HRASV12) viability, CellTiter-Glo ATP luminescence, 48 h; reference of the scale not given here;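 active = replicate mean above 50%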;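 note: 50 nL library stock added to about 25 µL; numbers are from one replicate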
Sa ugtP lethal = compounds lethal to S. aureus RN4220 ugtP deletion mutant; OD600 growth, 16 h; some inactives read as strong as hits; growth inhibition, % (no concentration beside the values); hit rate 0.54% among 330,000; AID 1259309;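 active = z-score under -3 and OD600 up to 0.15 on both plates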;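 note: plate controls were untreated wells for no effect and antibiotic for full effect; wells of about 80 µL received 100 nL stock; the first replicate is given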
Mtb hypoxia inh growth = second read-out of Mtb hypoxia inh, no call of its own (marks repeat the call); growth inhibition, %; measured here: M. tuberculosis growth (absorbance);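 0% = vehicle and 100% = reference antibiotic; read after six days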
* marks the source's active call; other numbers are inactive results; x = no result given.

Screens in order – Mtb hypoxia inh	Mtb hypoxia inh growth	RN4220 kill	Bead autofluor	PrP 5UTR inh	BJeLR lethal	Sa ugtP lethal
#1 O=c1[nH]c2ccc(NCc3ccc(F)cc3)cc2[nH]1
→ 14	8	0.9	4283	-14	-1	3
#2 CC(C)c1ccc(CNc2ncc(Br)cn2)cc1
→ -2	-1	-5.6	3928	-51	0	2
#3 CN(C)/C=C/C(=O)c1ccc(Br)cc1
→ 19	3	6.2	2907	-30	-3	8
#4 COc1ccc(Cl)cc1N(C(=O)c1ccco1)C(C(=O)NC1CCCC1)c1cccnc1 (stereo not given)
→ 8	0	-0.2	3748	-21	6	2
#5 C=Cn1ccnc1P(=S)(c1cc(N(CC)CC)ns1)c1nccn1C=C
→ 1	-1	0.1	4363	2	0	2
#6 CC(=N/O)/C(=N\O)c1ccc(C)o1
→ x	x	x	3670	-12	9	x
#7 Cc1ccc(C=Nn2c(-c3ccncc3)n[nH]c2=S)s1
→ 0	8	9.2	x	x	x	5
#8 CC(C(=O)NCC1CCCCC1)N1CCN(S(=O)(=O)c2cccs2)CC1 (stereo not given)
→ -9	3	2.8	5197	-1	x	11
#9 CCOc1ccccc1C(=O)OCC(=O)Nc1cccc(S(=O)(=O)N2CCCC2)c1
→ 9	9	2.2	5301	x	x	1
#10 O=C(COc1ccc(Br)cc1)NCCN1CCCC1
→ -10	-4	-0.4	4011	-11	0	0

Following part.
Screens in order – Mtb hypoxia inh	Mtb hypoxia inh growth	RN4220 kill	Bead autofluor	PrP 5UTR inh	BJeLR lethal	Sa ugtP lethal
#11 CCC1CCCCN1C(=O)COc1ccc2c3c(c(=O)oc2c1)CCC3 (stereo not given)
→ 20	7	-3.4	3997	-23	x	4
#12 Cc1cccc(Nc2nnc(SCC(=O)NC3CCCc4ccccc43)s2)c1C (stereo not given)
→ 4	-8	-1.3	2551	-72	1	-15
#13 CC(=O)NC1C(=O)N(CC(C)C)c2ccccc21 (stereo not given)
→ 15	6	3.9	21274*	-14	6	-13
#14 O=C(NCc1ccccn1)c1ccccc1OCc1ccc(Cl)cc1Cl
→ 2	0	8.3	5473	-5	x	-12
#15 COc1ccc(C(=O)C2CCCN(Cc3ccsc3)C2)cc1OC (stereo not given)
→ -14	-1	0.3	2284	-5	12	7
#16 COc1cccc(NC(=O)c2ccc(S(=O)(=O)N3CCCCC3)cc2)c1
→ 10	4	-0.3	5601	-20	5	8
#17 Cc1cc(C(=O)OCCO)c(C#N)c(N)n1
→ 21	6	-10	2755	-14	-1	-5
#18 CC(=O)c1ccccc1NC(=O)c1cc(S(=O)(=O)N2CCOCC2)ccc1N1CCCC1
→ 4	-13	-0.2	7636	-20	x	9
#19 CCCCn1c(O)c(/C=N/NC(=O)c2ccncc2)c(=O)[nH]c1=O
→ 13	14	5.3	3951	-17	-3	2
#20 COc1ccc(Nc2nc(N)nc(CSC(=S)N3CCN(c4ccccc4)CC3)n2)cc1
→ 4	12	0.7	1875	-15	-2	7

(list continues)
Screens in order – Mtb hypoxia inh	Mtb hypoxia inh growth	RN4220 kill	Bead autofluor	PrP 5UTR inh	BJeLR lethal	Sa ugtP lethal
#21 O=C(Nc1cccc(S(=O)(=O)NCc2ccco2)c1)c1cc(-c2ccc(F)cc2)nc2ccccc12
→ 5	1	-4.9	2637	-3	1	-17
#22 CC(Sc1nnc(C2CC2)n1C1CC1)C(=O)Nc1cccc(S(=O)(=O)N(C)C)c1 (stereo not given)
→ 8	0	2.3	3709	-33	x	3
#23 COCCN1CCC(CNCc2cn(-c3cc(C)ccc3C)nc2-c2ccccc2)C1 (stereo not given)
→ 8	9	-1.0	3858	-15	3	7
#24 Cc1cccc(-n2ncc(C#N)c2N)c1
→ x	x	6.2	2527	-16	3	-2
#25 CCCCn1c(N)c(N(C)C(=O)C2CCCC2)c(=O)[nH]c1=O
→ -5	5	5.3	3591	-24	x	1
#26 CC(Sc1nnc2ccccn12)C(=O)Nc1ccc2c(c1)OCCO2 (stereo not given)
→ -21	-4	1.3	4297	-5	6	-2
#27 N#CC(=NNc1cccc2ccccc12)c1nnc2n1CCCCC2
→ 3	-1	1.3	x	x	x	-27
#28 Cc1c(CN(C)C)c2c(n1Cc1ccccc1)C(=O)c1ccccc1-2
→ x	x	-20	2556	-15	5	-14
#29 Cc1ccccc1CN(c1ccc(C(=O)Nc2cccnc2)cc1)S(C)(=O)=O
→ 7	6	4.4	9534	-19	1	-8
#30 C=C(C)C1CCC2(C(=O)O)CC[C@]3(C)C(CCC4[C@@]5(C)CCC(=O)C(C)(C)C5CC[C@]43C)C12 (stereo not given in full)
→ -2	0	11	x	x	x	-25

Next part.
Screens in order – Mtb hypoxia inh	Mtb hypoxia inh growth	RN4220 kill	Bead autofluor	PrP 5UTR inh	BJeLR lethal	Sa ugtP lethal
#31 CS(=O)(=O)Nc1ccc(C(=O)NC2CC3CCC2C3)cc1 (stereo not given)
→ 15	0	5.6	15476	-9	-8	10
#32 CCCC/S(C)=N/S(=O)(=O)c1ccc(C)cc1 (stereo not given)
→ x	x	x	1944	-14	0	x
#33 CC(=O)n1cc(C2C=C(C(=O)O)OC(OCCCCO)C2)c2ccccc21 (stereo not given)
→ 4	10	2.8	x	x	x	-1
#34 O=S(=O)(NC1CC1)c1ccc(S(=O)(=O)N2CCCc3ccccc32)cc1
→ 4	-2	18	7326	-19	0	2
#35 O=C(Nc1ccccc1F)N(Cc1ccc(F)cc1)Cc1nc2ccccc2c(=O)[nH]1
→ 3	0	2.3	4992	-48	5	3
#36 CC(C)C(=O)Nc1ccc(-c2nc3ncccc3o2)cc1
→ 4	8	6.5	3954	-36	-3	4
#37 C=CCn1c(SCCN2CCOCC2)nc2c1c(=O)[nH]c(=O)n2C
→ x	x	5.6	3506	-16	-6	14
#38 Fc1ccccc1COc1ccc(Br)cc1CNCC1CCCO1 (stereo not given)
→ 0	2	1.3	3309	-23	1	0
#39 O=C(Nc1ccccc1)C1C2CCC3C(CCC21)C3(Cl)Cl (stereo not given)
→ 25	-15	-18	2946	-12	-11	0
#40 CC1=CC(=NNc2ccccc2[N+](=O)[O-])CC(C)(C)C1
→ 13	11	5.9	x	x	x	52

4 entries from above, as a markdown table:
| No. | SMILES | Mtb hypoxia inh | Mtb hypoxia inh growth | RN4220 kill | Bead autofluor | PrP 5UTR inh | BJeLR lethal | Sa ugtP lethal |
| --- | --- | --- | --- | --- | --- | --- | --- | --- |
| 37 | C=CCn1c(SCCN2CCOCC2)nc2c1c(=O)[nH]c(=O)n2C | x | x | 5.6 | 3506 | -16 | -6 | 14 |
| 38 | Fc1ccccc1COc1ccc(Br)cc1CNCC1CCCO1 (stereo not given) | 0 | 2 | 1.3 | 3309 | -23 | 1 | 0 |
| 39 | O=C(Nc1ccccc1)C1C2CCC3C(CCC21)C3(Cl)Cl (stereo not given) | 25 | -15 | -18 | 2946 | -12 | -11 | 0 |
| 40 | CC1=CC(=NNc2ccccc2[N+](=O)[O-])CC(C)(C)C1 | 13 | 11 | 5.9 | x | x | x | 52 |

Later entries:
Screens in order – Mtb hypoxia inh	Mtb hypoxia inh growth	RN4220 kill	Bead autofluor	PrP 5UTR inh	BJeLR lethal	Sa ugtP lethal
#41 C[C@]12CCC(=O)C=C1CC[C@@H]1[C@@H]2[C@@H](O)C[C@]2(C=O)[C@@H](C(=O)CO)CC[C@@H]12
→ x	x	x	4293	-20	0	x
#42 Cc1ccc(S(=O)(=O)Nc2ccc(Br)cc2C(NCC(=O)O)c2ccccc2)cc1 (stereo not given)
→ 4	-4	12	2014	1	11	-28
#43 CC(=O)N1CCN(CC(O)Cn2c3ccccc3c3ccccc32)CC1 (stereo not given)
→ 2	3	2.5	3853	-14	-2	8
#44 CC(=NNC(=O)CC#N)c1ccc(Oc2ccccc2)cc1
→ -7	14	2.1	x	x	x	1
#45 O=C(CC1SC(=O)N(Cc2cccc3ccccc23)C1=O)Nc1nccs1 (stereo not given)
→ 2	2	-4.7	2257	-48	-11	-19
#46 CCCn1ncc(CN2CCC(CO)(Cc3ccc(OC)cc3)CC2)c1C
→ -1	-2	7.1	4875	-10	-1	5
#47 Cc1oncc1C(=O)NC1CCCCC1
→ 2	8	4.4	4197	-12	1	-2
#48 CCN1CCN(C(c2cccs2)C(C)NS(=O)(=O)c2ccc(C)cc2)CC1 (stereo not given)
→ 10	7	0.9	2408	-2	4	4
#49 COCCNC(=O)CN(C(=O)CCC(=O)Nc1ccccn1)c1ccc(C)cc1
→ -4	-4	-2.5	x	-13	-3	-5
#50 O=C(Cn1cnc2cc([N+](=O)[O-])ccc2c1=O)Nc1ccccc1Cl
→ -3	5	-5.1	4280	-8	3	-6

Additional records.
Screens in order – Mtb hypoxia inh	Mtb hypoxia inh growth	RN4220 kill	Bead autofluor	PrP 5UTR inh	BJeLR lethal	Sa ugtP lethal
#51 Cn1c2ccc(F)cc2c2ncn(CCN3CCOCC3)c(=O)c21
→ 4	8	1.1	8996	-75	-1	4
#52 Cc1c(OC(C)C(=O)NCCCn2ccnc2)ccc2c3c(c(=O)oc12)CCC3 (stereo not given)
→ 11	4	2.1	6476	-12	4	-1
#53 COc1ccc(OC)c(C(=O)CN2CCN(S(=O)(=O)c3ccc(Br)cc3)CC2)c1
→ x	x	1.6	4805	-33	-6	2
#54 CCOc1ccc(C(=O)Nc2ccc(N3CCN(C(C)=O)CC3)cc2)cc1[N+](=O)[O-]
→ 3	1	-0.1	2169	-17	0	3
#55 Cc1noc(C)c1C(=O)OCC(=O)Nc1cccc(S(=O)(=O)N(C)C)c1
→ -4	1	1.3	7291	1	-2	0
#56 CCC(CC)c1nnc(NC(=O)c2cccnc2SC)s1
→ 1	4	4.0	4427	-27	6	6
#57 COc1ccc(NC(=O)c2cc(S(=O)(=O)N3CCCCC3)c[nH]2)cc1Cl
→ 2	5	1.0	5925	-15	10	-1
#58 CCN(CC(=O)Nc1c(F)cccc1F)C(=O)Cn1c(=O)cnc2ccccc21
→ 5	2	-2.3	3887	-20	x	1
#59 CC(C)Cn1[nH]c2c3c(ccc2c1=O)C(=O)c1ccccc1C3=O
→ -3	-4	89*	3372	-36	-3	85*
#60 Cc1cc(C)nc(-n2nc(C)cc2NC(=O)CNC(C)c2ccccc2)n1 (stereo not given)
→ 0	-1	0.2	3832	-16	-13	-5

The listing continues.
Screens in order – Mtb hypoxia inh	Mtb hypoxia inh growth	RN4220 kill	Bead autofluor	PrP 5UTR inh	BJeLR lethal	Sa ugtP lethal
#61 Cc1ccccc1OCCC(=O)N(Cc1ccccc1)c1c(N)n(Cc2ccccc2)c(=O)[nH]c1=O
→ 3	-4	-1.9	4510	-9	-12	6
#62 CN(Cc1c(C(=O)N/N=C/c2ccccc2F)nnn1-c1nonc1N)c1ccccc1
→ x	x	x	5624	-13	6	x
#63 COc1ccc(NC(=O)CSc2nnc(NC(C)=O)s2)c([N+](=O)[O-])c1
→ 14	13	6.1	2630	-17	4	1
#64 CCCCn1c(N)c(N(CCC(C)C)C(=O)C2CC(=O)N(Cc3ccc(C)cc3)C2)c(=O)[nH]c1=O (stereo not given)
→ -5	-3	-0.7	4472	0	6	-3
#65 O=[N+]([O-])c1cccc(-c2nn(-c3ccccc3)cc2CO)c1
→ 14	17	2.2	4483	-11	0	-15
#66 COc1cccc(C(=O)Nc2cc(=O)n(C)c(=O)n2C)c1
→ -4	6	3.2	5318	-4	-15	7
#67 Cc1cc(C(C)(C)C)ccc1OCC(=O)NN=Cc1c(C)n(C)n(-c2ccccc2)c1=O
→ -10	-7	6.5	x	x	x	2
#68 COC(=O)C1=C(c2cccc(OC)c2OC)C[C@@H]2CC[C@H]1N2C(=O)NCc1ccco1
→ x	x	x	3986	-15	1	x
#69 O=C(Cc1ccc(Cl)cc1)Nc1ccc(CN2CCCCC2)cc1
→ 5	-1	1.4	4512	4	-5	2
#70 COc1ccc(N2CCN(C(=O)CNS(=O)(=O)c3ccc(Br)s3)CC2)cc1
→ 4	5	6.0	3066	-10	-8	7

The list continues:
Screens in order – Mtb hypoxia inh	Mtb hypoxia inh growth	RN4220 kill	Bead autofluor	PrP 5UTR inh	BJeLR lethal	Sa ugtP lethal
#71 Cc1nnc(N2C(=O)C(=O)/C(=C(\O)c3ccc4c(c3)CC(C)O4)C2c2ccccc2)s1 (stereo not given)
→ x	x	x	6001	8	-11	x
#72 c1ccc(-c2nnc3sc(Cc4cccs4)nn23)cc1
→ x	x	2.3	6048	-18	5	-12
#73 O=C(NN=Cc1ccc[nH]1)c1ccc(Cl)cc1
→ 1	8	-0.8	x	x	x	5
#74 COC(=O)CN1C(=O)[C@@H]2[C@H](C1=O)[C@@H]1CC(C(=O)OC)=C[C@@H](C(=O)OC)[C@@H]3C1=C(C(=O)[C@@]3(C)NC(=O)c1ccccc1)[C@@H]2C
→ x	x	x	3893	-11	15	x
